# Ab BasE inh: BasE siderophore enzyme inhibitors, primary screen, biochemical, Acinetobacter baumannii ATCC 17978, fluorescence polarization | purified BasE, fluorescence polarization binding displacement | hit rate 0.1% among 84,000 | inhibition, % (no concentration beside the values);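 active = both replicates above 25% with normal brightness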;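 also: 0% = negative plate control signal and 100% = positive plate control signal; stock transfer was 100 nL into about 30 µL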
# KSHV LANA nucl: inhibitors of KSHV LANA-nucleosome binding, primary screen, biochemical, fluorescence polarization, FITC-LANA1-23, chicken nucleosomes; FITC-LANA1-23 / chicken nucleosome fluorescence polarization; hits give low values; z-score (no concentration beside the values); hit rate 0.3% among 51,000; AID 720717, 2013;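 active = both repeat wells score below -2 in polarization z-score versus plate sample wells, excluding overly bright wells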;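 also: 100 nL library stock added to about 30 µL; numbers are from one replicate; some results filed as inactive read as strong as hits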
#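 Material: Purified chicken nucleosomes with FITC-labelled LANA N-terminal peptide (1-23) | Reagent: 50 nM FITC-LANA1-23 probe | Medium: TEN-BT buffer, pH 7.5 | Times: 10–45 min incubation at room temperature | Detection: Fluorescence polarization | Replication: Duplicates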
# Starred values were filed as active, the others as inactive; / = not tested or not shown; & = joins results of further samples. Not all compounds are listed. The share of hits here may be higher or lower than overall.
SMILES,Ab BasE inh,KSHV LANA nucl
N#CNC1=NCN(CCCN2CCOCC2)CN1,-0.3,-1.02
COc1ccc(-c2noc(COC(=O)c3cccc(OC(F)F)c3)n2)c(OC)c1,2.6,/
O=C(NCc1c(-n2cccc2)sc2c1CCCC2)NC12CC3CC(CC(C3)C1)C2,0.1,0.212
CC1Cc2ccccc2N1C(=O)CN1CCN(c2ccc(C(F)(F)F)cn2)CC1 (stereo unspecified),-0.3,/
COC(=O)c1c(-c2snnc2C)n[nH]c1C,0.6,/
CNCCC(Oc1ccc(C(F)(F)F)cc1)c1ccccc1 (stereo unspecified),-0.2&-0.9,-1.21&1.17&-0.704&0.195
CCn1c(CC(=O)Nc2ccccc2)n[nH]c1=S,-1.9,-0.0645
Cc1nnc(SCC(=O)c2ccc(F)cc2)o1,1.7,-0.128
Cc1ccc(NC(=O)/C(C#N)=N/Nc2ccc(S(=O)(=O)Nc3ncccn3)cc2)cc1C,0.1,/
O=C(C/C(=C1/CCc2ccccc2C1=O)c1ccccc1)c1ccccc1,-4.0,/
CCOc1cc(N2CCOCC2)c(OCC)cc1NC(=O)CSc1ccccc1C(=O)O,0.7,/
Cc1csc(Nc2ccc(Cl)cc2)n1,3.0,-0.725
CC1=C(O)C(=O)C(/C=N/NC(N)=O)C1 (stereo unspecified),-1.3,0.474
CCN(CC)c1nc(N2CCOCC2)nc2ccccc12,-2.1,2.32
CCN1C(=O)c2cccc3c(S(=O)(=O)Nc4ccccc4)ccc1c23,-0.4,/
Clc1ccc(CSc2nnc(COc3ccccc3)o2)cc1,-1.9,-0.289
N#CC1=C(c2ccccc2)C(c2ccccc2)OC1=O (stereo unspecified),0.5,0.163
Cc1nn(C)c(C)c1Nc1cnn(-c2ccccc2)c(=O)c1Cl,1.1,/
Cn1cccc1C(=O)Nc1cccc(C(F)(F)F)c1,1.0,/
CNCC(O)COc1ccccc1 (stereo unspecified),0.4,0.113
O=c1[nH]c(CN2CCN(S(=O)(=O)c3ccccc3C(F)(F)F)CC2)nc2scc(-c3cccs3)c12,0.2,/
COC(=O)Cn1[nH]c(=O)c2ccccc2c1=O,0.7,/
Cc1cc(C)c(NC(=O)CS(=O)CC(=O)N2CCN(c3ccccc3)CC2)c(C)c1 (stereo unspecified),-3.2,0.327
O=C(Nc1ccccc1)N1CCCN(c2nccc(C(F)(F)F)n2)CC1,-1.9,-0.186
CCOc1ccc2nc(SCC(=O)O)c(C)cc2c1,0.7,-0.807
Cc1[nH]c2ccccc2c1/C=N/NC(=O)CN1CCSCC1,-1.1,0.509
CC1C2CC(C/C2=N/O)C1(C)C (stereo unspecified),4.8,-0.206
CC1CC(C)CN(C(=O)CSc2nnc(-c3ccc4c(c3)OCO4)n2-c2ccccc2)C1 (stereo unspecified),-0.3,/
CCCN(CCC)c1ccc(/C=N/NC(=O)OCC)cc1,-0.9,-0.16
N#CCCN1CCN(Cc2ccccc2)CCC1=O,2.5,0.683
Cc1nc2ccccn2c1C(=O)NC1CCCC1,1.8,0.236
O=C(Cc1ccccc1)NN1C(=O)c2ccccc2C1=O,4.2,-0.214
CC(C)(C)n1nnnc1C(c1ccc2ncccc2c1)N1CCc2ccccc21 (stereo unspecified),-2.5,-0.551
CC(C)(C)c1ccc(NC(=O)c2cnccn2)cc1,-2.4,/
CCOC(=O)C1=C(c2ccccc2)N2CCS(=O)(=O)N=C2S1,2.0,/
O=C(Cn1c(=O)n(-c2ccccc2)c(=O)c2cc(-c3ccccc3)sc21)c1cccs1,-3.9,/
CCc1ccc(Cn2ncc3c(C(=O)O)cc(C)nc32)cc1,-0.6,/
CCOC(=O)c1c(/N=c2\oc3ccc4ccccc4c3cc2C(N)=O)sc2c1CCCC2,2.4,/
Cc1ccc(C(=O)C2Sc3nnc(C)n3NC2c2ccc(Cl)cc2)cc1 (stereo unspecified),2.4,/
CCN(C(=O)CSc1nc2ccccc2n1CCC#N)C1=CCCC1,0.6,/
CCCN1CCN(C(=O)C2COc3ccccc3O2)CC1 (stereo unspecified),-0.1,-1.15
COC(=O)C1CSC(c2ccc(Cl)cc2)=CC1N(C)C (stereo unspecified),/,2.84
N/N=C1\C(=N/O)CCc2nonc21,-0.2,-0.617
CC(=O)NC(Cc1ccc(O)cc1)C(=O)NN (stereo unspecified),1.2,/
Cc1ccc(NC(=O)CCc2nc3ccccc3c(=O)[nH]2)cc1,18.1,/
O=c1[nH]c2cc3c(cc2cc1CNCc1ccc2c(c1)OCO2)OCCO3,-2.5,-0.364
CCN(CC)C(=O)CCc1nc2sc3c(c2c(=O)[nH]1)CCCC3,-2.0,/
COc1ccc(C2=N/C(=C\c3ccc(C)o3)C(=O)O2)c(Cl)c1,0.4,-1.29
CC(C)C(C(=O)O)n1c(=S)[nH]c2ccccc2c1=O (stereo unspecified),2.1,/
COC(=O)c1cc(S(=O)(=O)NCC2CCN(CCc3cccs3)CC2)c[nH]1,-0.2,2.22
COc1ccc(CN2C(=O)CC(Cc3ccc(C)cc3)C2=O)cc1OC (stereo unspecified),1.6,/
N/C(=N\NC(=O)c1ccccc1)c1cc2ccccc2oc1=O,-1.4,0.338
CC(C)NC(=O)c1cnn2c(C(F)F)cc(-c3ccccc3)nc12,3.0,0.036
Cc1cnn(C(=O)c2ccc(Br)o2)c1,-1.6,0.862
Cc1ccc(NC(=O)Nc2cccs2)c(Cl)c1,-0.2,-0.91
N#Cc1c2c(c(N3CCCCC3)n3c1nc1ccccc13)CCC2,-0.5,/
O=C(Cn1cnc2c(nc3n2CCCCC3)c1=O)N1CCCc2ccccc21,-1.3,0.707
CCC1(CC)N=C(c2ccccc2)C(=S)N1,0.3,0.651
Cc1noc(C)c1CSc1ncccc1C(=O)Nc1ccnn1C(C)C1CC1 (stereo unspecified),-0.1,/
FC(F)(F)c1cc(N2CCC(n3cccc3)CC2)c2ccccc2n1,0.0,/
# Next records
SMILES,Ab BasE inh,KSHV LANA nucl
COC(=O)c1ccc(-n2ncnc2-c2ccc(N(C)C)cc2)cc1,0.5,0.0435
Oc1ccc(Br)cc1C=Nc1cc2c(cc1Br)OCCO2,-24.8,/
O=C(NCc1ccco1)NC(=O)c1ccccc1,-0.3,1.34
Cn1ncc2c(NCC3CCCO3)ncnc21 (stereo unspecified),0.3,-1.16
O=C(CCCCCN1C(=O)C2C3C=CC(C3)C2C1=O)Nc1ccc2ncccc2c1 (stereo unspecified),1.8,-0.181
CCn1nc(C(=O)N(C)Cc2ccc(OC(F)F)cc2)c2ccccc2c1=O,1.0,/
Cc1ccc(OC(=O)CCC(=O)N2CCc3ccccc32)cc1,0.6,-0.441
COc1ccc(/C=C/C(O)=C(\C#N)c2nnc(N3CCOCC3)n2-c2ccccc2)cc1OC,3.3,/
COc1cccc(CNCCCN2CCOCC2)c1OCc1ccc(F)cc1,1.3,0.159
CC(C)(Oc1ccc(Cl)cc1)C(=O)Nc1nnc(C(F)(F)F)s1,4.1,0.605
Cc1cccc(CN2CCN(CC(=O)NC3CCCCCC3)C2=O)c1,-0.3,-0.128
N#Cc1c2n(cnc1=O)CCCCC2,-2.1,0.418
CC1CN(c2nn3c(=O)c4ccccc4nc3c3ccccc23)CC(C)O1 (stereo unspecified),2.1,1.13
O=C1CCN(Cc2ccccc2)C(=O)N1c1ccccc1,0.9,/
CNC(=O)N(C1=NCCCCC1)c1ccc(C)cc1,0.5,/

# Single records, as listed above. Values in the order: Ab BasE inh, KSHV LANA nucl
# Results for `N#CC1=C(c2ccccc2)C(c2ccccc2)OC1=O` (stereo unspecified) : 0.5, 0.163
# Results for `COc1cccc(CNCCCN2CCOCC2)c1OCc1ccc(F)cc1` : 1.3, 0.159
# Results for `Cc1ccc(NC(=O)/C(C#N)=N/Nc2ccc(S(=O)(=O)Nc3ncccn3)cc2)cc1C` : 0.1, /
# Results for `COc1ccc(/C=C/C(O)=C(\C#N)c2nnc(N3CCOCC3)n2-c2ccccc2)cc1OC` : 3.3, /
# Results for `COC(=O)c1ccc(-n2ncnc2-c2ccc(N(C)C)cc2)cc1` : 0.5, 0.0435

# Going on with the list.
SMILES,Ab BasE inh,KSHV LANA nucl
Cc1nnc(COc2ccccc2C#N)o1,0.4,/
CC(=O)CC(c1ccccc1)c1c(O)c2ccccc2oc1=O (stereo unspecified),-3.3,-0.406&-0.158
Cc1ccc(C(=O)OCC(=O)NCc2ccc3c(c2)OCO3)cc1S(=O)(=O)N1CCOCC1,-0.9,/
CC(C)CN(CC(C)C)C(=O)c1noc2c1CC(C)CC2 (stereo unspecified),-0.5,/
O=C(Cc1ccc(N2CCCC2=O)cc1)Nc1ccc(-c2nnc3n2CCCCC3)cc1,0.6,/
COc1ccc(S(=O)(=O)Nc2ccccc2C(=O)N2CCCCC2)cc1,1.7,/
CCn1c2ccccc2c2cc(NS(=O)(=O)c3cccs3)ccc21,-1.2,/
Cc1cc(-c2nnc(-c3ccc(Cl)cc3)o2)no1,-4.3,/
Cc1ccc(C(=O)OCC(=O)/C=C2\N(C)c3ccccc3C2(C)C)cc1NC(=O)c1ccco1,0.2,/
Cc1cccc(OCC(=O)NCC(=O)n2nc(C)cc2C)c1,2.0,-0.339
NCC1OCCc2ccccc21 (stereo unspecified),-1.5,-0.699
COc1ccc(OCCN2C(=O)CNC2=S)cc1,4.7,/
CCN(CC)CN1C(=O)C2C3c4ccccc4C(c4ccccc43)C2C1=O (stereo unspecified),1.3,-1.49
Cc1c(Nc2ncnc3c2cnn3C)c(=O)n(-c2ccccc2)n1C,4.2,-0.816
O=C1NC(=O)C(Nc2ccccc2Cl)S1 (stereo unspecified),-5.8,-0.079
COc1ccc(C(CC#N)C(C)C)cc1 (stereo unspecified),0.7,-0.0105
Cc1[nH]c2ccccc2c1C(=O)CN1CCN(S(=O)(=O)/C=C/c2ccccc2)CC1,-1.8,/
CCOc1ccccc1NC(=O)c1cc(=O)[nH]c2ccccc12,-0.8,-0.576
COc1ccc(N(C(C)=O)S(=O)(=O)c2ccc(F)cc2)cc1,2.5,-1.01
O=C(O)c1ccccc1Sc1ncnc2sccc12,3.2,/
Cn1c(C(C#N)C(=O)COc2ccc(Cl)cc2)nc2ccccc21 (stereo unspecified),2.2,/
CC1(C)CC(=O)C2=C(C1)NC(=O)CC2c1ccccc1 (stereo unspecified),-0.3,-0.369
COc1cc(Cl)c(NC(=O)c2cc(C)[nH]n2)c(OC)c1,-0.2,-1.57
O=C(CN(CCc1ccccc1)S(=O)(=O)c1ccc(Br)cc1)NC1CC1,0.5,/
O=C(Nc1ccc2c(c1)OCCO2)N1CCN2CCCCC2C1 (stereo unspecified),-0.6,/
CCOC(=O)N1CCN(C(=O)Cc2c(C(=O)O)n(C)c3ccccc23)CC1,-1.3,-1.37
CCn1c(Cn2cc(S(=O)(=O)N3CCCC3)ccc2=O)nc2cc(S(=O)(=O)N(C)C)ccc21,1.9,/
C=CCn1c(C)cc(C(=O)Cn2c(CN3CCOCC3)nc3ccccc3c2=O)c1C,-0.8,/
Fc1ccc(Cn2[nH]nnc2=S)cc1,2.9,/
O=C(O)CSCC(=O)Nc1nc(SCc2ccc(Cl)cc2)n[nH]1,1.2,/

# Quoted at random: three records from the list, in no set order.
SMILES,Ab BasE inh,KSHV LANA nucl
CC1(C)CC(=O)C2=C(C1)NC(=O)CC2c1ccccc1 (stereo unspecified),-0.3,-0.369
O=C(CN(CCc1ccccc1)S(=O)(=O)c1ccc(Br)cc1)NC1CC1,0.5,/
Cn1c(C(C#N)C(=O)COc2ccc(Cl)cc2)nc2ccccc21 (stereo unspecified),2.2,/

# Additional structures:
SMILES,Ab BasE inh,KSHV LANA nucl
COc1ccc(CN2CC(C(=O)NCCCN3CCCCCC3)CC2=O)cc1 (stereo unspecified),-6.4,1.75
CCN(CC)CCNC1CCN(CC)CC1,5.9,-0.252
CCC(=O)Nc1cc2c3c(c1)CCN3C(=O)CC2,0.6,-0.742
NS(=O)(=O)c1ccc(NC(=O)CCCC(=O)N2CCOCC2)cc1,1.2,-0.112
Cc1cc(C)nc(-n2nc(C)cc2NC(=O)c2ccc(Cl)c(S(=O)(=O)N3CCOCC3)c2)n1,0.5,/
COc1cc(/C=C/c2ccc(O)cc2)cc(OC)c1,/,0.0965
CCOC(=O)c1[nH]c2ccccc2c1NC(C)=O,-0.6,0.325
CC(=NCc1ccc(C)cc1)c1c(O)cc(C)oc1=O,-2.7,/
COc1ccc2cc(/C=C3/C(=O)NC(=S)N3C(C)=O)c(N3CCOCC3)nc2c1,-9.9,0.692
CC(C)N(C(=O)CSc1nnc(Cc2cccs2)n1CCc1ccccc1)C(C)C,1.3,/
CCOC(=O)/C(C)=C1\NC(C)(C)Cc2ccccc21,1.1,0.267
N#Cc1cccc(CSc2nc(NC3CC3)c3ccccc3n2)c1,-0.9,/
OC(CCN1CCCCC1)(c1ccccc1)C1CCCCC1 (stereo unspecified),0.6&-3.0,1.48&1.02&0.083
CCCNC(=O)Cn1cc(S(=O)(=O)N2CCCC2)c(S(=O)(=O)N2CCCC2)c1,-0.6,/
CN(C)S(=O)(=O)c1ccc(N2CCCC2)c(C(=O)OCc2ccc(F)cc2)c1,0.6,/
COCCNC(=O)c1cccc2c1SCCC2=O,3.6,0.109

# Five of the entries above in order of the KSHV LANA nucl value, rising:
smiles,KSHV LANA nucl
CCC(=O)Nc1cc2c3c(c1)CCN3C(=O)CC2,-0.742
CCN(CC)CCNC1CCN(CC)CC1,-0.252
NS(=O)(=O)c1ccc(NC(=O)CCCC(=O)N2CCOCC2)cc1,-0.112
COc1ccc2cc(/C=C3/C(=O)NC(=S)N3C(C)=O)c(N3CCOCC3)nc2c1,0.692
COc1ccc(CN2CC(C(=O)NCCCN3CCCCCC3)CC2=O)cc1 (stereo unspecified),1.75

# Compound activity from PubChem.
